From PubChem
LANA-nucl inh: LANA-nucleosome interaction inhibition. FITC-LANA1-23 / chicken nucleosome fluorescence polarization; active compounds read low. z-score (no concentration beside the values). 51,000 compounds, 0.3% hits. AID 720717;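 active means both repeat wells score below -2 in polarization z-score versus plate sample wells, excluding overly bright wells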;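 further: 100 nL library stock added to about 30 µL; numbers are from one replicate; some results filed as inactive read as strong as hits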
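Material: Purified chicken nucleosomes with FITC-labelled LANA N-terminal peptide (1-23) | Reagent: 50 nM FITC-LANA1-23 probe | Medium: TEN-BT buffer, pH 7.5 | Times: 10–45 min incubation at room temperature | Detection: Fluorescence polarization | Replication: Duplicates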
Ab BasE inh: blocks the Acinetobacter baumannii siderophore enzyme BasE | purified BasE, fluorescence polarization binding displacement | inhibition, % (test concentration not listed) | AID 485350 | 84,000 compounds, 0.1% hits;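 active means both replicates above 25% with normal brightness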;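 further: 0% = negative plate control signal and 100% = positive plate control signal; stock transfer was 100 nL into about 30 µL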
The depositor's hits bear a star; nt = no result given; & = joins results of further samples. The list is partial, so the mix of outcomes need not match the whole.

1	CC(=O)NC1C(=O)N(C(C)C)c2ccccc21 (configuration not stated)
2	c1ccc(-c2nnc(-c3ccc4c(c3)OCO4)nc2-c2ccccc2)cc1
3	O=C(NCc1cccnc1)c1cc(-c2cccc(Br)c2)nc2ccccc12
4	CCC1CCc2c(sc(NC(=O)CN3CCC4(CC3)OCCO4)c2C#N)C1 (configuration not stated)
5	C=C(C)Cn1c(=S)[nH]c2c(c1=O)C(C)(C)Cc1ccccc1-2
6	Cc1nc(Oc2ccc3c(C)cc(=O)oc3c2)c2c3c(sc2n1)CCC3
7	Cc1ccc(S(=O)(=O)N(C)CC(=O)NN)cc1
8	CCOC(=O)N1CCC(N/C=C(\C#N)S(=O)(=O)C(C)C)CC1

assay / compound	1	2	3	4	5	6	7	8
LANA-nucl inh	1.8	nt	nt	2.3	0.21	nt	nt	nt
Ab BasE inh	-3.7	1.9	0.6	0.6	0.0	1.0	0.8	0.4

9	CN(Cc1ccccc1)Cn1ncn(C)c1=S
10	COC(=O)c1cc(-c2ccccc2)oc1CN
11	CC1CCN(C(C(=O)O)c2ccccc2)CC1 (configuration not stated)
12	O=C(O)CNc1ccc2nncn2n1
13	Cc1ccc(CNC(=O)c2cc3oc4ccccc4c3n2C)cc1
14	CCOC(=O)Cn1c(=O)oc2cc(S(=O)(=O)Nc3cc(C)ccc3OC)ccc21
15	CN(C)/C=N/c1c(C#N)cnn1-c1ncnc2sc3c(c12)CCC3
16	CCn1c2c(c3cc(F)ccc31)CCCC2=O

assay / compound	9	10	11	12	13	14	15	16
LANA-nucl inh	nt	-0.23	-1.5	-0.79	0.52	1.5	nt	0.72
Ab BasE inh	1.2	-2.4	0.6	-0.5	1.6	-5.6	1.5	0.5

17	O=c1[nH]c(NN=C2CCCCC2)nc2sc3c(c12)CCCC3
18	O=C(CSc1nnc(-c2ccccc2)n1-c1ccccc1)NC(=O)CN1CCCC1=O
19	COC(=O)C1=C(C)N(c2ccc(C)cc2)C(=O)/C1=C\c1ccc2c(c1)OCO2
20	CCOc1cc(C(=O)CCC(=O)O)ccc1O
21	Nc1nonc1/C(=N/OC(=O)c1ccccc1)N1CCOCC1
22	Cn1c(C(O)C(F)(F)F)nc2ccccc21 (configuration not stated)
23	O=C(NC(C(=O)N1CCOCC1)C12CC3CC(CC(C3)C1)C2)C1CCCCC1 (configuration not stated)
24	C/C(=N\N)c1c(-c2ccccc2)c2cc(Cl)ccc2[nH]c1=O

assay / compound	17	18	19	20	21	22	23	24
LANA-nucl inh	0.69	nt	2	0.26	-0.92	nt	-0.94	0.36
Ab BasE inh	0.1	-0.6	-3.0	0.2	-0.6	1.1	-1.1	-1.5

Pulled by structure from above, six records:
17	O=c1[nH]c(NN=C2CCCCC2)nc2sc3c(c12)CCCC3
10	COC(=O)c1cc(-c2ccccc2)oc1CN
1	CC(=O)NC1C(=O)N(C(C)C)c2ccccc21 (configuration not stated)
19	COC(=O)C1=C(C)N(c2ccc(C)cc2)C(=O)/C1=C\c1ccc2c(c1)OCO2
22	Cn1c(C(O)C(F)(F)F)nc2ccccc21 (configuration not stated)
16	CCn1c2c(c3cc(F)ccc31)CCCC2=O

assay / compound	17	10	1	19	22	16
LANA-nucl inh	0.69	-0.23	1.8	2	nt	0.72
Ab BasE inh	0.1	-2.4	-3.7	-3.0	1.1	0.5

(listing goes on)
25	Cc1nn(-c2ccccc2)c2c1C1(C)CC(C)(O2)c2c(C)nn(-c3ccccc3)c2O1
26	COc1ccc(C2=Nc3ccccc3SC(c3ccccc3)C2)cc1 (configuration not stated)
27	Cc1cc(O)cc(C)c1Cl
28	CCS(=O)(=O)c1ccc(O)c(NC(=O)CC(C)(C)CC(=O)O)c1
29	COc1ccc2c(CC(=O)N3CCCSc4ccccc43)coc2c1
30	NC(=S)Cc1nnc2n1CCCCC2
31	CCOC(=O)Cn1c(=O)oc2cc(S(=O)(=O)N(CC)c3ccc(C)c(C)c3)ccc21
32	CN(C)S(=O)(=O)c1cccc(CSc2nnc(-c3ccccc3Cl)n2C)c1

assay / compound	25	26	27	28	29	30	31	32
LANA-nucl inh	1.2	nt	0.024&-0.77	0.1	nt	nt	2.2	nt
Ab BasE inh	1.5	-3.8	-1.9	-1.4	1.4	1.4	-16	-0.3

33	COc1cc(/C=C/C(=O)Nc2cccc3c(=O)[nH][nH]c(=O)c23)cc(S(=O)(=O)N2CCc3ccccc32)c1OC
34	CN(C)C1(CNC(=O)C2CCN(S(=O)(=O)c3ccc4c(c3)OCCCO4)CC2)CCCCC1
35	Cc1cccc(-n2c(SCC(=O)NC3(C#N)CCCC3)nc3ccccc3c2=O)n1
36	O=C(NCc1c(Cl)cccc1Oc1ccccc1)c1ccccc1
37	O=C(NCC1CCCO1)C1CCN(Cc2ccccc2O)CC1 (configuration not stated)
38	O=C(Oc1ccccc1Cl)C1CCCCC1
39	NNC(=O)Cc1ccccc1
40	CCOC(=O)C1=C(C)NC(SC)=NC1c1cccs1 (configuration not stated)

assay / compound	33	34	35	36	37	38	39	40
LANA-nucl inh	nt	nt	nt	nt	-0.49	0.3	nt	nt
Ab BasE inh	-0.7	1.9	-0.5	0.9	1.0	2.5	1.5	3.9

41	Cc1cc(C(=O)COC(=O)CSc2nc3ccccc3o2)c(C)n1C
42	O=C(O)c1ccccc1C(=O)N1CCN(Cc2ccncc2)CC1
43	Cc1cccc(N=C=S)c1C
44	Cc1cc(C(=O)CSc2ncc(-c3ccccc3)n2C)c(C)n1-c1ccc(S(N)(=O)=O)cc1
45	Cc1ccc(S(=O)(=O)N(CC(=O)O)C2CCCCCC2)cc1
46	CCOc1ccccc1N1CCN(Cn2nc(-c3ccco3)oc2=S)CC1
47	CCCN(CCC)C(=O)CSc1nc2ccncc2[nH]1
48	O=C(CSc1nccc(=O)[nH]1)N1N=C2/C(=C/c3ccco3)CCCC2C1c1ccco1 (configuration not stated)

assay / compound	41	42	43	44	45	46	47	48
LANA-nucl inh	nt	nt	nt	nt	nt	nt	-2.1	nt
Ab BasE inh	2.6	2.5	0.8	2.2	1.1	-1.0	1.1	1.7

49	CCCn1c(=O)n(C)c(=O)c2c(SC(C(=O)NC(=O)NC)c3ccccc3)nc(CC(C)C)nc21 (configuration not stated)
50	Cc1[nH]c(=O)[nH]c(=O)c1/C=N/NC(=S)NCc1ccc(OC(C)C)cc1
51	O=C(O)/C=C/C(=O)c1ccccc1
52	O=C(Nc1nc(SCc2ccc(Cl)cc2)n[nH]1)C1=NN(C2CCS(=O)(=O)C2)C(=O)CC1 (configuration not stated)
53	Cc1ccccc1Cn1cc(NC(=O)c2cc(CC(C)C)on2)cn1
54	CCOC(=O)c1sc(N)c(C#N)c1COC(=O)CCCN1C(=O)c2ccccc2C1=O
55	CC(C)(C)NC(=S)NCC1CC1
56	O=C(C(c1ccccc1)N1Cc2ccccc2C1=O)N1CCc2ccccc21 (configuration not stated)

assay / compound	49	50	51	52	53	54	55	56
LANA-nucl inh	nt	-0.17	0.44	nt	0.046	nt	nt	1.8
Ab BasE inh	1.1	4.8	-0.3	0.3	-0.2	13	1.0	-3.4

57	Cc1ccc(CC2C(=O)N(c3nc(C)cc(C)n3)C(=O)C2C)cc1 (configuration not stated)
58	Cc1cc(N2CCOCC2)nc2ccc(NC(=O)CCC(=O)NC3CCCCC3)cc12
59	O=C(NCCC1=CCCCC1)C1CCCN(c2cnccn2)C1 (configuration not stated)
60	O=C1OC(c2ccccc2)=N/C1=C\c1ccc(N2CCOCC2)cc1
61	Cc1ccccc1C(=O)NN1C(=O)c2ccccc2C1=O
62	O=C(N/N=C/c1cn(-c2ccccc2)nc1-c1ccccc1)c1ccco1
63	CCOc1ccccc1NC(=O)CN1C(=S)NC(C)(C)CC1C (configuration not stated)
64	CN(C)C(=O)CN1CCN(C(=O)Nc2ccc(Cl)c(Cl)c2)CC1

assay / compound	57	58	59	60	61	62	63	64
LANA-nucl inh	-0.061	0.097	0.03	nt	0.34	0.009	-0.79	nt
Ab BasE inh	3.6	-1.1	-1.1	3.6	2.9	-3.3	-0.1	-0.9

65	COc1ccccc1CC(=O)n1cccn1
66	CN1C(=O)C(O)(C2COC(C)(C)CC2=O)c2cc(Br)ccc21 (configuration not stated)
67	O=C(NC(C(=O)c1ccccc1)N1CCCCC1)c1ccccc1 (configuration not stated)
68	CCCCC/C=C\C=C\[C@H](O)CCCCCCCC(=O)O
69	O=C(Nc1cccc2c1CCCC2)c1cc(C2CC2)[nH]n1
70	COC(=O)c1ccc(COC(=O)c2cc(OC)c(OC)cc2NC(=O)c2ccco2)cc1
71	O=C1CCCCC1Sc1nnc(Cc2cccs2)n1CCc1ccccc1 (configuration not stated)
72	NC(=O)C1CCN(Cc2cc(=O)oc3cc4c(cc23)CCC4)CC1

assay / compound	65	66	67	68	69	70	71	72
LANA-nucl inh	0.72	-0.9	-0.43	-0.61	-1.7	nt	nt	nt
Ab BasE inh	-1.4	1.6	-1.1	-3.6	1.2	-0.7	-0.3	1.7

Compound profiles (already shown). Values in the order: LANA-nucl inh, Ab BasE inh
`CN(C)/C=N/c1c(C#N)cnn1-c1ncnc2sc3c(c12)CCC3` across the screens: nt, 1.5
`CCC1CCc2c(sc(NC(=O)CN3CCC4(CC3)OCCO4)c2C#N)C1` (configuration not stated) across the screens: 2.3, 0.6
`Nc1nonc1/C(=N/OC(=O)c1ccccc1)N1CCOCC1` across the screens: -0.92, -0.6
`O=C(N/N=C/c1cn(-c2ccccc2)nc1-c1ccccc1)c1ccco1` across the screens: 0.009, -3.3

Additional compounds.
73	CC(C)N=C(N)/N=C(\N)Nc1ccc(Cl)cc1
74	Cc1ccc2c(CC(=O)Nc3ccccc3)coc2c1
75	O=C(Nc1ccccc1)C1CCN(C(=O)c2cccc(-n3cccc3)c2)CC1
76	O=c1c2ccccc2[nH]c(=S)n1CCS
77	O=S(=O)(/C=C/c1ccccc1)Nc1ccc2cn[nH]c2c1
78	CC(=O)NCc1ccc(C(=O)CSc2ncnc3sc(C)c(C)c23)o1
79	CCOc1ccc(C(=O)OC(C)C(=O)NC2CC2)cc1OCC (configuration not stated)
80	COC(=O)c1noc(C)c1C(=O)/C=C/N1CCCCC1

assay / compound	73	74	75	76	77	78	79	80
LANA-nucl inh	-0.032&0.2	nt	nt	nt	nt	nt	nt	nt
Ab BasE inh	-4.2	1.9	2.8	1.6	-0.2	-3.4	0.6	3.7

81	Cc1ccc(CN(C)C(=O)c2ccc(C#N)cc2)o1
82	O=C(Nc1cccc(-c2cn3ccccc3n2)c1)c1cccc(Cl)c1
83	Cc1nc2ccccc2c(=O)n1/N=C/c1ccc(N2CCOCC2)cc1
84	O=C(CN1C(=O)CCC1=O)Nc1ccc(Cl)cc1
85	O=C(Cc1ccccc1)CC1(O)C(=O)Nc2ccccc21 (configuration not stated)
86	COc1ccc(-n2c(N)c(-c3nc4ccccc4n3C)sc2=S)cc1
87	O=C(c1cccc(S(=O)(=O)N2CCOCC2)c1)n1nnc2ccccc21
88	N#CCCn1nc(Nc2ccccc2)n(-c2ccccc2)c1=S

assay / compound	81	82	83	84	85	86	87	88
LANA-nucl inh	nt	nt	nt	nt	0.64	nt	nt	-0.42
Ab BasE inh	1.1	3.5	0.1	1.2	-1.3	1.4	-0.1	1.6

89	NCCCc1ccco1
90	COCC(C)NC(=O)C1CC(=O)N(c2ccccc2)C1 (configuration not stated)
91	c1ccc(-c2nc3ccccc3nc2N2CCCC2)cc1
92	CN(C)C(=O)C[n+]1ccc(C(N)=O)cc1
93	COC(=O)Nc1ccc(S(=O)(=O)n2cnc3ccccc32)cc1
94	COc1ccc(NC(=O)CCCN2C(=O)C3C4C=CC(C4)C3C2=O)c(OC)c1 (configuration not stated)
95	S=C(N/N=C/c1cccnc1)NC1CCCCC1
96	C/C(=C\c1ccccc1)CN(C)C1CCN(C)CC1

assay / compound	89	90	91	92	93	94	95	96
LANA-nucl inh	0.81	-0.31	nt	-0.32	nt	-0.25	nt	0.5
Ab BasE inh	-6.5	1.7	0.2	0.7	2.4	2.5	-0.1	1.8

97	NC(=O)NC(Cc1ccccc1)C(=O)N1CCN(S(=O)(=O)c2ccc(Cl)cc2)CC1 (configuration not stated)
98	CCC1(C)Cc2ccccc2-c2nc3n(c(=O)c21)CC(C(=O)O)S3 (configuration not stated)
99	CC12CC=C3c4ccc(O)cc4CCC3C1CCC2O (configuration not stated)
100	Cc1ncc(CO)c2cc(C(N)=O)c(=Nc3ccc(C(N)=O)cc3)oc12
101	CC(=O)Nc1ccccc1OCC(=O)NC(=O)Nc1ccc(C)cc1C
102	O=C(NCc1ccco1)NCC(F)(F)F

assay / compound	97	98	99	100	101	102
LANA-nucl inh	nt	-0.038	-0.012	2.3	nt	-0.72
Ab BasE inh	-1.0	2.3	0.7	-1.9	-0.6	1.1
